# High-throughput results deposited in PubChem by Fisher Drug Discovery Resource Center.
# NPYLR7 agonist: agonists of mosquito NPYLR7 receptor, primary screen, cell-based, Aedes aegypti, calcium fluorescence, mosquito biting behavior; activation, % at 10 µM; AID 1259423, 2018; HEK293T NPYLR7/Galpha15, GCaMP6s calcium fluorescence; actives 0.15% (n = 270,000); Aedes aegypti neuropeptide Y-like receptor 7 (NPYLR7); in the data active = activation above about 40%;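 also: 0% = vehicle and 100% = reference agonist at the receptor; some compounds past the cut are filed as inactive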
# NPYLR7 agonist max-min: further read-out of NPYLR7 agonist, marked with its call; activation, %; measured here: Max-Min RFU normalised activation; some inactives read as strong as hits;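 span of the calcium signal over five minutes; 0% = vehicle and 100% = native peptide agonist; compound fluorescence can raise it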
# * hit, by the source's call; & = joins results of further samples.
SMILES,NPYLR7 agonist,NPYLR7 agonist max-min
CC(CNC(=O)C1CCCO1)Oc1ccccc1Br (centres undefined),7,2
CC1=CC[C@@]2(C)CC[C@@](O)(C(C)C)[C@@H]2[C@@H](O)C1,-9,-21
CCC(C)N(Cc1ccc(OS(=O)(=O)CC)cc1)C(=O)Nc1c(C(C)C)cccc1C(C)C (centres undefined),5,22
CSCCCNC(=O)C1CCC(=O)N(CCc2cccc(F)c2)C1 (centres undefined),4,-1
CC(C)n1nc(C(=O)N2CCC[C@H]2C(=O)O)c2ccccc2c1=O,-14,-21
Cn1cc(NC(=O)C(Oc2ccccc2Br)c2ccccc2)cn1 (centres undefined),11,10
COc1ccc(N2C(=O)CSC2c2cccc(NC(=O)c3ccc(Cl)cc3)c2)cc1 (centres undefined),-7,0
O=C(c1ccccc1S(=O)(=O)Cc1ccccc1)N1CC[C@H](O)[C@@H](O)C1,21,12
Cc1cccc(N2CCCn3c2nc2c3c(=O)n(CC(=O)OCc3ccccc3)c(=O)n2C)c1,1,6
O=S(=O)(Nc1nn(-c2ncccn2)cc1Br)c1cccs1,-1,-1
CC1(C)COCCN1C(=O)CCC(=O)N(CCC#N)c1ccccc1,1,-1
O=C(C1CCCC1)N(CCN1CCOCC1)Cc1nccn1Cc1ccc(C(F)(F)F)cc1,3,9
CCCCn1c(C)c(C)n2c3c(=O)[nH]c(=O)n(C)c3nc12,-2,-6
C=CCNCc1nc2sc(C(C)C)cc2c(=O)[nH]1,30,37
CCN1CC(NC(=O)c2cccc(-n3nc(C)cc3C)c2)CC1=O (centres undefined),1,14
CCc1nc2c(OCCOc3ccccc3)cccn2c1N(C=O)CC(=O)N(C)C,-2,-12
COc1cc(OC)c(OC)cc1/C=C1/N=C(c2cc(Cl)ccc2OC)OC1=O,0,-6
Cn1c(=NN=Cc2c[nH]c3ccccc23)sc2ccccc21,7,7
Cc1ccc2nc(-c3cccc(Cl)c3)c(NC(=O)COc3ccccc3)n2c1,-5,2
O=Cc1ccc(-c2cccc(Br)c2)s1,-3,-3
COc1ccc(-n2nnc3c(=O)n(CC(=O)c4ccccc4)cnc32)cc1,2,6
CSc1nsc(NC(=O)c2sccc2C#N)n1,5,3
CC(C)(CC(=O)O)CC(=O)NC1CCOC1=O (centres undefined),10,7
CCOC(=O)c1ccc2c(c1)nc(SCc1ccc(C)cc1C)n2Cc1ccccc1,14,9
Cn1cc(C(=O)NC2CCCC2)c2[nH]c(=O)n(-c3ccc(F)cc3)c(=O)c21,4,3
C=C(CC1CC(=O)N(CCNc2ccc([N+](=O)[O-])cn2)C1=O)CC(C)(C)C (centres undefined),-5,-11
COCCn1c(C)cc(O)c(C(c2ccccc2OC)N2CCN(C)CC2)c1=O (centres undefined),9,0
O=C(Nc1ccc(-n2cccn2)cc1)C1CCN(Cc2ccsc2)CC1,9,5
CC1(C)C[C@H]2C[C@@H](O)[C@H](N(CC3CC3)CC3CC3)[C@]2(O)CO1,2,10
COCCCNC(=O)C(NC(=O)C1CC1)C1CCN(C(=O)c2ccccc2F)CC1 (centres undefined),1,-1
Cc1cccnc1C(c1ccccc1)N(C)C(=O)C1CCN(C(=O)N(C)c2ccccc2)CC1 (centres undefined),9,-2
COc1ccc(CC(=O)NC2CC(=O)N(CC3CCCCC3)C2)cc1 (centres undefined),11,4
Cc1ccc(OCCS(=O)(=O)N2CCN3C(=O)CNC(=O)C3C2)cc1 (centres undefined),-6,-10
O=C(Nc1cccc(-c2ccco2)c1)C1CCN(C(=O)c2ncoc2C2CC2)CC1,7,-3
CC1Sc2nnc(C3CCCO3)n2N=C1c1ccc(NC(=O)C(C)(C)C)cc1 (centres undefined),-1,-4
CCCCn1ncc(C)c1NC(=O)c1cccc(CN2CC[C@H](O)C2)c1,6,5
COCc1c(C(=O)NCc2ccc3c(c2)CCCN3C)cnn1-c1ncc(C)c(-c2cccs2)n1,15,7
CCc1nc2n(n1)C(=O)C(C(c1ccco1)N1CCN(C(=O)c3ccco3)CC1)S2 (centres undefined),-7,-13
Cc1ccc(S(=O)(=O)Nc2ccc(-c3c(-c4cccc(C)c4)[nH]n(-c4ccccc4)c3=O)cc2)cc1,7,11
COCCN(CC(=O)Nc1cc(C(C)(C)C)nn1-c1ccc(Cl)c(Cl)c1)C(=O)c1ccc([N+](=O)[O-])cc1,-2,2
Cc1ccc(S(=O)(=O)OCC(=O)Nc2ccc(C(=O)O)c(O)c2)cc1,11,10
CC1=Nc2c(ccc3c2N=C(C)C3(C)C)C1(C)C,-1,-2
Cc1nn(-c2ccc3nnc(C)n3n2)c2c1C(c1ccccc1F)CC(=O)N2 (centres undefined),-19,-24
c1ccc(CN2CCCC(NCc3cccc(-n4cccn4)c3)C2)nc1 (centres undefined),14,7
Cc1ccc(C(=O)NC2CCN(CC(=O)Nc3nncs3)CC2)s1,8,6
CC(NC(=O)c1ccoc1)C(=O)Oc1ccc(-c2nc(C(C)(C)C)cs2)cc1 (centres undefined),0,6
O=S(=O)(c1ccc(Oc2ncnc3c2oc2ccccc23)cc1)N1CCOCC1,3,9
Cn1nccc1CN1CCC(Cc2ccc(F)cc2)CC1,31,18
COC(=O)C1=C(C)N(C)C(=O)NC1c1ccc(N(C)C)cc1 (centres undefined),-5,-10
Cc1ccc(S(=O)(=O)N2CCN(c3ccc(C)c(C)c3)CC2)cc1,5,2
Cc1ccc(-c2nc(C)c(C(C)C)c(N3CCN(S(=O)(=O)c4cc(Cl)ccc4Cl)CC3)n2)cc1,-2,-1
COc1ccc(-n2nc(-c3ccc(F)cc3)cc2C(=O)N2CCC(C(N)=O)CC2)cc1,2,3
CCCN(C)c1nc(-c2ccccc2)nc2c1CN(C(=O)Nc1cc(C(F)(F)F)cc(C(F)(F)F)c1)CC2,25,21
CCc1ccc(OCCSc2nc3ccccc3n2CCO)cc1,-11,-19
COc1ccc(-n2nc(-c3ccccc3)cc2C(=O)N(CCc2ccccc2)Cc2ccccc2)cc1,10,9
O=P1(NCc2cccnc2)C=C(c2ccccc2)OC(c2ccccc2)=C1,2,-1
Cc1cccc(NC(=O)Nc2ccc(N3CCC(C)CC3)c(C(=O)NC3CCCCC3)c2)c1,18,13
Cc1nc2ccccc2nc1Oc1cccc(C#N)c1,-3,-5
Cn1c(=O)c2c(-c3cccc4ccccc34)c(NCc3ccccc3)oc2n(C)c1=O,-3,-5
O=C1/C(=C/c2ccccc2F)SC(=S)N1C1CCS(=O)(=O)C1 (centres undefined),0,-5

# Single records, as listed above:
# CC(NC(=O)c1ccoc1)C(=O)Oc1ccc(-c2nc(C(C)(C)C)cs2)cc1 (centres undefined) is listed with NPYLR7 agonist = 0; NPYLR7 agonist max-min = 6
# Cn1c(=O)c2c(-c3cccc4ccccc34)c(NCc3ccccc3)oc2n(C)c1=O is listed with NPYLR7 agonist = -3; NPYLR7 agonist max-min = -5

# Gathered by group: the entries above containing fluorine (nine)
SMILES,NPYLR7 agonist,NPYLR7 agonist max-min
CSCCCNC(=O)C1CCC(=O)N(CCc2cccc(F)c2)C1 (centres undefined),4,-1
O=C(C1CCCC1)N(CCN1CCOCC1)Cc1nccn1Cc1ccc(C(F)(F)F)cc1,3,9
Cn1cc(C(=O)NC2CCCC2)c2[nH]c(=O)n(-c3ccc(F)cc3)c(=O)c21,4,3
COCCCNC(=O)C(NC(=O)C1CC1)C1CCN(C(=O)c2ccccc2F)CC1 (centres undefined),1,-1
Cc1nn(-c2ccc3nnc(C)n3n2)c2c1C(c1ccccc1F)CC(=O)N2 (centres undefined),-19,-24
Cn1nccc1CN1CCC(Cc2ccc(F)cc2)CC1,31,18
COc1ccc(-n2nc(-c3ccc(F)cc3)cc2C(=O)N2CCC(C(N)=O)CC2)cc1,2,3
CCCN(C)c1nc(-c2ccccc2)nc2c1CN(C(=O)Nc1cc(C(F)(F)F)cc(C(F)(F)F)c1)CC2,25,21
O=C1/C(=C/c2ccccc2F)SC(=S)N1C1CCS(=O)(=O)C1 (centres undefined),0,-5

# New compounds follow:
SMILES,NPYLR7 agonist,NPYLR7 agonist max-min
CN(c1ccccc1)c1nc(-c2ccc(F)cc2F)nc2ccccc12,-2,-11
CCOC(=O)C1(Cc2cccc(OC)c2)CCCN(CCCn2cccn2)C1 (centres undefined),4,4
CC1CN(C(=O)CCN2CCc3sccc3C2c2cccc(F)c2)CCN1C(=O)c1ccc([N+](=O)[O-])cc1 (centres undefined),14,-4
Cc1cc(C(=O)N2CCCC2c2cccs2)ccc1N1CCNC1=O (centres undefined),5,2
CN(Cc1ccco1)C(=O)Nc1cnn(CC(F)(F)F)c1,2,0
Cc1ccc(C2c3cccn3-c3ccccc3N2C(=O)CN(C(=O)Nc2ccccc2C)C(C)C)cc1 (centres undefined),19,18
CC(=O)N(Cc1cccnc1)c1nc2c(F)cc(F)cc2s1,-12,-12
CCCN1CCN(S(=O)(=O)c2[nH]ncc2C(=O)OCC)CC1,-1,-3
NS(=O)(=O)c1cc2c(cc1Cl)NC(C1CC3C=CC1C3)NS2(=O)=O (centres undefined),-7,2
Cc1cc(C)n2c(NCc3ccccc3)c(-c3ccccc3C)nc2c1,-3&-2,0&-2
O=C(O)COc1ccc2ccc(=O)oc2c1,0,0
COc1ccc(CN(C(=O)Nc2ccc(Cl)c(Cl)c2)C(C)C)cc1OS(C)(=O)=O,-7,-2
c1ccc2oc(N3CCN(Cc4ccc(C5CCCO5)s4)CC3)nc2c1 (centres undefined),3,0
O=C(NCCSCc1c(Cl)cccc1Cl)c1cncn1-c1cccc(-c2cccc(OC(F)(F)F)c2)c1,6,3
CC1(Cc2ccc(Cl)c(Cl)c2)C(=O)Nc2ccccc21 (centres undefined),0,3
CCC12CN(C(C)=O)CC(CC)(CN(C(C)=O)C1)C2=O,10,9
N#Cc1c[nH]n2c(NC3CCCC3)c(-c3cccs3)nc12,-1,-3
COc1ccccc1N1CCN(Cc2ccc(F)cc2F)C(C)C1=O (centres undefined),10,13
COCCCN(CC(=O)N(Cc1ccco1)Cc1cccn1C)C(=O)c1cccc(Br)c1,1,10
CCOc1cc(C2NC(=O)NC(C)=C2C(=O)OC2CCCCCCC2)ccc1O (centres undefined),-1,-6
CC(C)[C@H](NC(=O)Cc1cccc2ccccc12)c1nc2ccccc2[nH]1,1,2
CS(=O)(=O)Nc1ccccc1CNC(=O)C1CC2CCC1C2 (centres undefined),5,5
CC(=O)Nc1ccc(-n2c(CCC(=O)NCc3ccncc3)ccc2-c2ccc(F)cc2)cc1,2,-1
CCOC(=O)c1nc2ccccc2nc1N1CCCN(S(=O)(=O)c2ccccc2C(F)(F)F)CC1,2,-2
Cc1ccc(NC(=O)c2cc(-c3cccc([N+](=O)[O-])c3)oc2C)cc1,3,7
O=C(NC1CC1)C1CCCN1Cc1nc2sc3c(c2c(=O)[nH]1)CCC3 (centres undefined),2,1
COc1ccccc1CCN1CCC(CN(C)C(=O)c2cccc(N(C)C)c2)CC1,8,3
COc1ccc(Cn2ccnc2CN(C(=O)c2cccs2)c2ccccc2)cc1,13,15
Cn1c(CNC(=O)c2cc(COc3ccccc3F)[nH]n2)nc2ccccc21,27,10
NCC1CC(=O)N(Cc2ccccc2)C1 (centres undefined),-18,-24
CCCN(C)c1ccc(C(=O)NC(Cc2ccccc2)C(N)=O)cc1 (centres undefined),15,17
Cc1nc(C)n(C(C)CO)n1 (centres undefined),1,0
CNC(=O)c1ccc(CN(C2CC2)S(=O)(=O)c2c(C)noc2C)cc1,7,-1
O=[N+]([O-])c1ccc2c(c1)[nH]c(=S)n2-c1ccccc1,2,9
Cc1ccc(Cl)c2sc(N)nc12,3,-7
COc1cccc(CO[C@]2(C(=O)NCCN3CCOCC3)CC(OC)[C@H](O)[C@H](O)C2)c1 (some centres undefined),0,2
OCCn1c(-c2ccc3c(c2)OCCO3)nc2ccccc21,-1,-1
CN(C)CC1(O)CCCN(C(=O)CCc2ccc(N(C)C)cc2)CC1 (centres undefined),-6,-7
CCCCNC(=O)C1(C)CCN1C(=O)c1cccnc1Oc1ccccc1 (centres undefined),-6,-7
COC(=O)N(C)Cc1cccc(N2CCN(C(C)c3ccccc3)CC2)c1 (centres undefined),-2,10

# 3 records picked at random from those above:
SMILES,NPYLR7 agonist,NPYLR7 agonist max-min
COc1ccc(-n2nc(-c3ccccc3)cc2C(=O)N(CCc2ccccc2)Cc2ccccc2)cc1,10,9
CCOc1cc(C2NC(=O)NC(C)=C2C(=O)OC2CCCCCCC2)ccc1O (centres undefined),-1,-6
O=C(C1CCCC1)N(CCN1CCOCC1)Cc1nccn1Cc1ccc(C(F)(F)F)cc1,3,9

# Next compounds.
SMILES,NPYLR7 agonist,NPYLR7 agonist max-min
Cc1nccn1-c1ccc(NC(=O)C2CCCN2C2CCOCC2)cc1 (centres undefined),-1,-5
COCc1cc(C)nc(N/N=C\c2ccc(-c3ccc(OC)cc3[N+](=O)[O-])o2)c1C#N,-1,8
Cc1ccc(S(=O)(=O)c2c(C)nn(C(C)(C)C)c2OC(=O)c2cccs2)cc1,5,10
COC(=O)CCC(=O)NCc1cccc(-c2ncc(-c3ccc(OC)cc3)[nH]2)c1,-3,8
Cc1cc(C)nc(Nc2n[nH]c(-c3cccc(Cl)c3)n2)n1,1,2
Cc1cccc(NC(=O)C2CCCN2C(=O)C23CC4CC(CC(C4)C2)C3)c1C (centres undefined),0,31

# A portion of the library (hit frequency here may not be typical).
